Assay outcomes deposited in PubChem by National Center for Advancing Translational Sciences (NCATS).
GLA inh pH 4.5 – inhibitors of human alpha-galactosidase A at pH 4.5 | P06280 | purified enzyme, 4-MU-alpha-Gal fluorescence, pH 4.5 | activity change, negative = inhibition, % at 105 µM | 230,000 tested, under 10 active; inconclusive = small, poorly fitted or top-dose-only inhibition, or a rising curve; inactive = flat fitted curve, though single readings scatter; no compound was filed as active;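 further: 0% = full activity with enzyme and -100% = basal without enzyme; dose as in the result columns while the protocol names 77 µM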
Target sequence (P06280 whole entry, looked up): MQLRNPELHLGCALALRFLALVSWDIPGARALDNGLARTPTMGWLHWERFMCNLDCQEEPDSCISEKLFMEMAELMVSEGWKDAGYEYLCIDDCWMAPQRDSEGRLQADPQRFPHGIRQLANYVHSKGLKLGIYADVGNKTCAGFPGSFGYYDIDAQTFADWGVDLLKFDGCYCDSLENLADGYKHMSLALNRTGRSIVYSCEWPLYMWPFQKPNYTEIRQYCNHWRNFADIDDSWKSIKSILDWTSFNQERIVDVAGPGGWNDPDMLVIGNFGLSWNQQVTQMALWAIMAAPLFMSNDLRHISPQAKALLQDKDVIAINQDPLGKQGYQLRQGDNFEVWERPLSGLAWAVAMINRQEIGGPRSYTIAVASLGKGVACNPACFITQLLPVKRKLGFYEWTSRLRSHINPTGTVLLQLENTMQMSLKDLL
Rango dissoc inh – prevents RanGTP from dissociating the Rango-importin beta complex | O95149+P62826 | Biochemical FRET Rango-importin beta, RanGTP-induced dissociation | Potency, µM (doses to about 46.1 µM), inactives show at the highest dose activity change, negative = inhibition | hit rate 0.071% among 340,000 | AID 540253; active means falling FRET ratio curve, often poorly fitted, with flat reads before Ran was added; inconclusive means other falling curves, or compound fluorescence or quenching; inactive means flat or rising ratio curve;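 further: potency means the concentration at half of the fitted maximal effect; % of control where 0% means no effect; nearly all actives have a fitted effect of over 45% in size; -100% = wells without RanGTP and RCC1; the record marks most hits as doubtful in a second field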
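Two FRET readings bracket the reaction: one 5 min after compound meets Rango–importin beta, another 45 min after RanGTP-RCC1 (0.6 uM Ran, 0.2 uM RCC1, 2 mM GTP) is added. Only the second defines inhibition.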
Rango complex inh – inhibitors of Rango-importin beta complex formation | Rango CFP/YFP FRET sensor + importin beta, 45 min | AID 540263 | Potency, µM (titrated, usually from 92.2 µM), inactives show at the top dose inhibition of complex formation | hit rate 0.031% among 340,000 | Q14974; active = rising FRET ratio curve, often small or poorly fitted; inconclusive = mostly compound fluorescence or quenching in the first reads; inactive = flat curves in all reads;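 further: potency means the concentration at half of the fitted maximal effect; 0% = DMSO wells and 100% = buffer wells lacking importin beta; nearly all actives have a fitted effect of over 15% in size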
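FRET biosensor Rango (snurportin 1 IBB between N-terminal EYFP and C-terminal Cerulean), 50 nM in PBS/1 mM DTT/0.02% Tween-20/0.1% BSA, preincubated 5 min RT with compound; 0.125 microM importin beta added, 45 min RT, CFP/YFP FRET ratio read.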
miR-21 reporter – miR-21 reporter, rising signal. HeLa miR-21 FLuc reporter, luciferase, 48 h. Potency, µM (highest dose often 38.3 µM), for inactives: at the top dose reporter change, positive = more light. 340,000 tested, under 10 active. AID 2288; active = well fitted rising curve with a large enough effect; inconclusive = small, poorly fitted or top-dose-only effect; inactive = no such curve, though single readings can be large or run the other way;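 further: % of control where 0% means no effect; miR-21 action dims this reporter so a rising signal means less miR-21 action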
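HeLa miR-21-FLuc reporter line, endogenous miR-21; 2000 cells/well in DMEM/10% FBS; compound titration up to ~40uM final, 48 h, 37 degree Celsius; luciferase detection reagent, 15 min lysis, CCD luminescence.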
Starred values were filed as active, the others as inactive; ? = inconclusive; . = not tested or not shown. Not all compounds are listed; the hit share may differ from the screen's.

SMILES | GLA inh pH 4.5 | Rango dissoc inh | Rango complex inh | miR-21 reporter
Cc1ccc2c(C(=O)CN3CCCC3)c(C)[nH]c2c1 | 8 | -15% | ? | -6%
COc1ccccc1NC(=O)CCCn1c(=S)[nH]c2ccccc2c1=O | 5 | -14% | 5.9% | -3%
CCN(CC)C(=O)Cn1cc(C(=O)C(=O)N2CCN(c3ccc(OC)cc3)CC2)c2ccccc21 | . | 31% | -0.4% | -1%
CC(C)(C)[C@H]1C=C(C(=O)O)O[C@@H](OCc2ccc(CO)cc2)C1 | . | 12% | 0.0% | .
CCC(=O)N1CCN(c2ccccc2NC(=O)c2ccc([N+](=O)[O-])o2)CC1 | . | -1% | 0.4% | 14%
OCCc1c[nH]c2ccc(C(F)(F)F)cc12 | . | -16% | -0.4% | -8%
CCNc1nc(Sc2ccc(C)cc2)cc(C(F)(F)F)n1 | 1 | -8% | 0.0% | 7%
CN(C)N=Nc1ccc(S(N)(=O)=O)cc1 | 4 | -5% | -1.4% | -1%
Cc1ccc(S(=O)(=O)CCC(=O)OC(C)c2nnc(-c3cccs3)o2)cc1 (stereo unspecified) | . | 11% | -1.0% | .
CCc1nnc(NC(=O)c2cc3ccccc3oc2=O)s1 | -7 | 1% | 0.2% | -7%
CC(=O)Nc1ccc(S(=O)(=O)N2CCN(S(=O)(=O)c3ccc(NC(C)=O)cc3)CC2)cc1 | . | -12% | -3.9% | -2%
Cc1ccc(C(C)C)c2c1C(c1ccc3c(c1)OCO3)CC(=O)O2 (stereo unspecified) | -17 | -8% | 0.7% | .
Cc1cc(C)n2nc(SCC(=O)N(CCC#N)c3ccc(F)cc3)nc2n1 | . | 18% | 2.3% | .
Cc1ccc(CNc2nc3ccc(C)cc3n3cnnc23)cc1 | -3 | -23% | ? | -10%
Cc1ccc(S(=O)(=O)Nc2nc(C)c(C(=O)NNS(=O)(=O)c3cc(C)ccc3C)s2)cc1 | . | ? | 1.5% | -2%
Cc1c(C(=O)NC(=S)NCc2cccnc2)cccc1[N+](=O)[O-] | . | 4% | 0.6% | -11%
CCCCCn1c(=O)c(-c2nc3ccccc3[nH]2)c(O)c2ccccc21 | ? | 6% | 0.4% | -6%
Cc1cc(C)nc(SCSc2nc(C)cc(C)n2)n1 | -15 | 11% | -7.4% | -5%
CCN(CC)C(=O)c1[nH]cnc1C(=O)NCC(=O)OC(C)(C)C | . | 0% | -0.1% | 0%
CC(C)Cc1nnc(NC(=O)CN2C(=O)NC3(CCCC3)C2=O)s1 | . | 18% | -2.4% | .
Cc1ccc(-c2c[n+](CC(=O)Nc3c(C)cccc3C)c3n2CCC3)cc1 | -5 | 13% | -0.6% | 7%
Cc1cc(C)c(O)c(-c2cc(C(=O)Nc3c(C)n(C)n(-c4ccccc4)c3=O)[nH]n2)c1 | 3 | 8% | -0.4% | -1%
COc1cccc(CN(C)CC(O)COc2cc(Cl)ccc2Cl)c1 (stereo unspecified) | . | 24% | 1.5% | -3%
O=C(N/N=C/c1cccnc1)c1cc(-c2ccccc2Cl)nc2ccccc12 | . | 4% | 0.0% | 1%
Cc1ccc(NC(=O)CCC(=O)c2ccc(Cl)s2)nc1 | . | 13% | -0.1% | .

(cont.)
SMILES | GLA inh pH 4.5 | Rango dissoc inh | Rango complex inh | miR-21 reporter
CCOc1ccccc1NC(=O)COC(=O)C1CCC(=O)N1 (stereo unspecified) | . | 22% | 0.2% | .
CCc1c(C)nc(N2CCOCC2)[nH]c1=O | 4 | 9% | -1.6% | 0%
COC(=O)c1ccccc1Sc1c(/C=N/OCc2ccc(Cl)cc2)c(C(F)(F)F)nn1C | 3 | -12% | -2.5% | 1%
COc1ccccc1C(=O)NCCC(=O)NCC1CCCCC1 | . | -6% | 3.3% | .
Cc1ccc(-c2ccc(C#N)c(=O)n2CC(=O)N(C)C)cc1 | . | -1% | -6.5% | -5%
O=c1c2cc(NC(=S)NC3CC3)ccc2nc2n1CCCCC2 | 1 | 30% | 2.2% | -10%
O=C(Nc1ccccc1)N1CCN(CCc2ccccc2)CC1 | 1 | 14% | -0.1% | -7%
COc1ccccc1N(C(=O)c1ccco1)C(C(=O)NC1CCCC1)c1ccncc1 (stereo unspecified) | . | -23% | 1.0% | -2%
O=C(O)C1CCCCC1C(=O)NCCCCc1ccccc1 (stereo unspecified) | -7 | 0% | 0.6% | -2%
CC(C)(C)NC(=O)CSc1nnc(C2CC2)n1-c1ccccc1 | 5 | 0% | -0.5% | -2%
COc1ccc(CCNC(=O)c2cnc3scc(C)n3c2=O)cc1OC | -3 | -3% | -1.3% | -25%
CC(C)OC(=O)c1cccc(-c2ccc(C=O)o2)c1 | -2 | -3% | -2.4% | -53%
Cc1ccc(/C=N/n2c(C)nc3ccccc3c2=O)s1 | -7 | . | . | -64%
O=C(Nc1cccc(Cl)c1)C1CCN(C(=O)c2cccs2)CC1 | . | 2% | -4.4% | 0%
O=C(NC(=S)Nc1cc(C(F)(F)F)ccc1N1CCOCC1)c1sc2ccccc2c1Cl | 0 | 1% | -1.5% | -4%
O=C(c1cc(=O)c2ccccc2o1)N1CCCc2ccccc21 | 1 | 2% | 0.2% | -28%
CC(=O)Nc1ccc(/C=C(\C#N)S(=O)(=O)c2ccc(C)cc2)cc1 | . | -13% | ? | .
Cc1ccccc1C(=O)Nc1ccnn1C1CCN(C(=O)c2ccoc2)CC1 | . | 10% | -0.9% | -2%
COCC(=O)N1CCC(Oc2ccc(C(=O)N(C)CCCC3CCCC3)cc2)CC1 | . | 6% | 0.5% | 13%
Cc1ccc(-c2ccc(S(=O)(=O)N3CCN(C)CC3)cc2)cc1 | -4 | 1% | -1.1% | -14%
CC(C)[Si]1(C(C)C)OCC2OC(n3cnc4c(N)ncnc43)C(N)C2O[Si](C(C)C)(C(C)C)O1 (stereo unspecified) | . | 1% | 0.0% | .
O=C(CSc1nnc(-c2ccccc2)o1)NC1CCCC1 | . | -23% | 1.0% | .
COc1ccc(NC(=O)C(=O)NCc2ccncc2)c(OC)c1 | -2 | 1% | 4.0% | -1%
O=C(CNC(=O)c1ccc(OC(F)F)cc1)NCc1ccccn1 | . | -3% | -2.8% | .
O=C(Cc1ccc(NC(=O)C2CCN(C(=O)C3CCCCC3)CC2)cc1)Nc1ccc(C(=O)N2CCOCC2)cc1 | . | -8% | 0.2% | .

Record cards, from the list above. Order of screens: GLA inh pH 4.5	Rango dissoc inh	Rango complex inh	miR-21 reporter
Record of O=C(Nc1ccccc1)N1CCN(CCc2ccccc2)CC1 → 1	14%	-0.1%	-7%
Record of COCC(=O)N1CCC(Oc2ccc(C(=O)N(C)CCCC3CCCC3)cc2)CC1 → .	6%	0.5%	13%
Record of CC(C)(C)NC(=O)CSc1nnc(C2CC2)n1-c1ccccc1 → 5	0%	-0.5%	-2%

Next part
SMILES | GLA inh pH 4.5 | Rango dissoc inh | Rango complex inh | miR-21 reporter
COc1ccc(-c2[nH]ncc2CN2CCCCCCC2)c(OC)c1 | -7 | ? | 1.2% | -2%
C=CCNCCCOc1ccc(C)cc1Br | -6 | -3% | 8.2% | -54%
Cn1c(SCCOc2ccc(Cl)cc2)nnc1-c1ccncc1 | -7 | 12% | 0.1% | 2%
CC(=O)C1=C(O)CC(C)(C)CC1=NCc1nc2ccccc2[nH]1 | -17 | 0% | 0.1% | -1%
CCCc1cc(C(=O)Nc2sc3c(c2C#N)CCC3)no1 | 3 | -17% | -1.2% | 0%
COCCCNc1nc2ccccc2nc1NS(=O)(=O)c1ccc(C)cc1 | 1 | -11% | -7.2% | 1%
CCc1ccc(C(=O)NNc2ccc(C)c(Cl)c2)cc1 | 0 | 10% | ? | 12%
CCc1cccc(NC(=S)N(CCCN2CCOCC2)C(C)c2cc3cccc(OC)c3o2)c1 (stereo unspecified) | -6 | 10% | -4.6% | -1%
CCCCNC(=O)C1CCN(C(=O)C2CCN(S(=O)(=O)c3ccc(C)cc3)CC2)CC1 | . | 9% | -0.3% | -2%
COc1ccc(OC(=O)c2cnn(-c3ccccc3)c2C)cc1 | -5 | -5% | 6.4% | -54%
COCC1CCCN(C(=O)c2ccc3oc(CCCc4ccccc4)nc3c2)C1 (stereo unspecified) | . | -6% | 2.5% | 2%
Cc1n[nH]c(=O)c2c(NC(=O)CSc3nc4ccccc4c(=O)n3CCCOC(C)C)oc(C)c12 | . | -15% | -0.5% | -14%
COc1ccc(CCNC(=O)c2ccccc2)cc1 | . | 7% | 1.5% | -40%
CCOC(=O)N1CCN(C(=O)CCn2nc(-c3ccccc3)ccc2=O)CC1 | -4 | 0% | 1.9% | -2%
C=CCn1cc(CN2CCC(C(=O)Nc3cccc(-c4cccc(Cl)c4)c3)CC2)c(C)n1 | . | 43% | 2.3% | ?
CCOC(=O)CCn1c2nc(C)cc(C)c2c(=O)n1-c1ccccc1 | 3 | 12% | 0.1% | -5%
COc1cc(C(=O)NCC(=O)N/N=C/c2ccc(-c3ccc([N+](=O)[O-])cc3)o2)cc(OC)c1OC | . | ? | ? | 11%
CCOc1ccc(C2C(C(=O)O)CCC(=O)N2C2CCCCC2)cc1 (stereo unspecified) | 2 | 1% | -0.9% | -4%
COC(=O)c1cnc(SCc2ccc([N+](=O)[O-])cc2)n1C | -2 | -14% | 0.1% | -13%
CCCc1nnc(-c2ccc(OC)cc2)o1 | 0 | -5% | -1.9% | -41%
CCOC(=O)C(C)Oc1ccc(C2NC(=O)NC(C)=C2C(C)=O)cc1Br (stereo unspecified) | -2 | 15% | -2.4% | -1%
C=C1CC2C(=O)N(Cc3ccccc3)C(C(=O)OCC)(C(=O)OCC)C1N2C(=O)OC(C)(C)C (stereo unspecified) | . | 0% | 0.4% | .
Cc1nc(N2C(=O)C(=O)/C(=C(/O)c3ccccc3)C2c2ccco2)sc1C (stereo unspecified) | -1 | -15% | ? | -30%
COC(=O)C1=CN(Cc2cccs2)C=C(C(=O)OC)C1c1ccc(OC)cc1OC | ? | ? | ? | -2%
Cc1cc(C)cc(C(=O)Nc2ccc(N3CCCC3)cc2)c1 | -1 | 1% | 0.2% | -55%

The results go on.
SMILES | GLA inh pH 4.5 | Rango dissoc inh | Rango complex inh | miR-21 reporter
Cc1ccc(NC(=O)c2cccc(S(=O)(=O)N3CCN(c4ccc(F)cc4)CC3)c2)nc1 | . | 15% | -0.5% | 19%
Fc1ccccc1-c1nc(N2CCCCC2)c2ccccc2n1 | -9 | -10% | -2.6% | -4%
O=C(Nc1ccc2c(c1)OCCO2)C1CCN(c2ncccn2)CC1 | 7 | -9% | 1.1% | -26%
O=C(c1ccc(C#CC2(O)CCCCC2)cc1)N1CCN(C(c2ccccc2)c2ccccc2)CC1 | -9 | -7% | -3.0% | 7%
CCC(C)NC(=O)c1cc(-c2ccc3c(c2)OCO3)on1 (stereo unspecified) | . | -3% | 0.2% | -38%
COc1ccc(NC(=O)C2CCN(S(=O)(=O)c3cccc4nonc34)CC2)cc1 | . | 3% | -1.8% | -3%
Cc1ccc(NC(=S)NC(=O)c2ccc(F)cc2)cc1S(=O)(=O)Nc1cccc(Cl)c1 | 5 | -4% | 14% | ?
Nc1ccc(Br)c2cccnc12 | 1 | -14% | ? | -11%
O=C(c1ccc(S(=O)(=O)N2CCOCC2)cc1)N(c1ccc(F)cc1)C1C=CS(=O)(=O)C1 (stereo unspecified) | -3 | 2% | -0.2% | -2%
Cc1ccc(-c2cccc([C@H]3[C@@H]4C=CC[C@@H](C)[C@@H]4C(=O)N3Cc3ccccc3)c2)cc1 | -9 | 9% | -1.5% | .
O=C(c1cnccn1)N1CCN(C/C=C/c2ccccc2)CC1 | -3 | -5% | ? | 0%
Cc1c(NC(=O)c2cc(-c3ccc(Cl)s3)nc3ccccc23)c(=O)n(-c2ccccc2)n1C | 3 | -16% | 1.1% | 0%
CC(=O)c1coc2ccc(OCC(=O)O)cc12 | -3 | -1% | -5.3% | -8%
CCC1(C)Cc2ccccc2-c2[nH][nH]c(=O)c21 (stereo unspecified) | -7 | 15% | 9.7% | 11%

2 of these compounds, set out differently:
The line under a structure holds: GLA inh pH 4.5	Rango dissoc inh	Rango complex inh	miR-21 reporter
CCC1(C)Cc2ccccc2-c2[nH][nH]c(=O)c21 (stereo unspecified)
 : -7	15%	9.7%	11%
CC(=O)c1coc2ccc(OCC(=O)O)cc12
 : -3	-1%	-5.3%	-8%
